# Assay outcomes from PubChem.
# CSC inhib: blocks cancer stem cells; cancer stem cell-like cells viability, luminescence; AID 2717; inhibition, % at 7.5 µM; actives 1.1% (n = 300,000);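 active = mean at 75% or more and at least half the replicates too; inconclusive = mean and replicates disagree; tested in HMLE shEcad cells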;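 note: 0% = median of negative and 100% = median of positive control wells; the first replicate is given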
# Rce1 inh: inhibitors of yeast Ras-converting enzyme | yeast membranes, quenched prenylated peptide cleavage fluorescence | actives 0.27% (n = 290,000) | calls only | AID 2563;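 active = fall in fluorescence gain of 50% or more versus controls, with final raw signal at or below 3038400; inconclusive = same 50% fall but final raw signal above 3038400; inactive = fall in fluorescence gain under 50%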;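 note: plate controls were neutral control wells for no effect and wells lacking membranes for full effect; tested at 10 µM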
# Target sequence (Q03530 whole entry, looked up): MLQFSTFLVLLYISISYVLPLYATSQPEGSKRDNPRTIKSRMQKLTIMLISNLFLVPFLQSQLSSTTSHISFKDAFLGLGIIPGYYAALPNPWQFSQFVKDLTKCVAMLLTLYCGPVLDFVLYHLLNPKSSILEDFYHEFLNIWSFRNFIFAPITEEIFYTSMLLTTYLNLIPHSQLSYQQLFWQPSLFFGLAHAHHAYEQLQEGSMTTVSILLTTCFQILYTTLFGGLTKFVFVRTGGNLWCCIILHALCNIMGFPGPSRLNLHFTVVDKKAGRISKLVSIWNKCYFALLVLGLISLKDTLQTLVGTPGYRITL
# eIF4H FP inh: inhibitors of RNA binding by human eIF4H. actives 0.94% (n = 290,000). Q15056. eIF4H fluorescence polarization binding assay. inhibition, % at 35 µM;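 active = 50% or more with normal probe brightness, or confirmed in later tests; inconclusive = above 50% with abnormal brightness, or retests that disagree; inactive = below 50% or failed in later tests; about a fifth of its hits are not listed in these tables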;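 note: calls also rest on retests at 20 µM and on dose response follow-up; 0% = protein and probe with vehicle and 100% = probe without protein; strong numbers were not always called active; many hits fall short of the cut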
# Yeast UUG start: yeast start codon fidelity modulation | S. cerevisiae UUG-firefly luciferase reporter, luminescence/redox ratio | activity score, % at 18.7 µM | actives 0.13% (n = 350,000) | AID 602363;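 active = replicate mean at a twofold rise or more, about +100% in these data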;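 note: firefly luciferase made from a UUG start codon reports start codon fidelity; reporter light over untreated wells divided by growth signal over untreated wells; some hits fall short of that in this replicate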
# HIV Env fusion: inhibitors of HIV Env-mediated cell fusion; HeLa-JRFL Env/CEM21 cell fusion, luciferase; inhibition, % at 12.3 µM; actives 1.1% (n = 360,000); AID 651610;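 active = mean replicate inhibition score of at least 50 and every replicate individually at or above 50; inconclusive = only one of the two criteria met; inactive = mean below 50 and not all replicates reaching 50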;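 note: 0% = plate neutral controls and 100% = maraviroc near 300 nM; one replicate is shown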
# PABP polyA inh: PABP-poly(A) binding inhibition. PABP-poly(A) RNA binding, fluorescence polarization. inhibition, % at 35 µM. actives 1% (n = 290,000);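 active = 50% or more with normal probe brightness, or confirmed in later tests; inconclusive = above 50% with abnormal brightness, or retests that disagree; inactive = below 50% or failed in later tests; about a fifth of its hits are not listed in these tables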;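 note: calls also rest on retests at 20 µM and on dose response follow-up; controls were probe without protein and protein plus probe with vehicle; some compounds called inactive have numbers as strong as hits; many hits fall short of the cut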
# Target sequence (P11940 whole entry, looked up): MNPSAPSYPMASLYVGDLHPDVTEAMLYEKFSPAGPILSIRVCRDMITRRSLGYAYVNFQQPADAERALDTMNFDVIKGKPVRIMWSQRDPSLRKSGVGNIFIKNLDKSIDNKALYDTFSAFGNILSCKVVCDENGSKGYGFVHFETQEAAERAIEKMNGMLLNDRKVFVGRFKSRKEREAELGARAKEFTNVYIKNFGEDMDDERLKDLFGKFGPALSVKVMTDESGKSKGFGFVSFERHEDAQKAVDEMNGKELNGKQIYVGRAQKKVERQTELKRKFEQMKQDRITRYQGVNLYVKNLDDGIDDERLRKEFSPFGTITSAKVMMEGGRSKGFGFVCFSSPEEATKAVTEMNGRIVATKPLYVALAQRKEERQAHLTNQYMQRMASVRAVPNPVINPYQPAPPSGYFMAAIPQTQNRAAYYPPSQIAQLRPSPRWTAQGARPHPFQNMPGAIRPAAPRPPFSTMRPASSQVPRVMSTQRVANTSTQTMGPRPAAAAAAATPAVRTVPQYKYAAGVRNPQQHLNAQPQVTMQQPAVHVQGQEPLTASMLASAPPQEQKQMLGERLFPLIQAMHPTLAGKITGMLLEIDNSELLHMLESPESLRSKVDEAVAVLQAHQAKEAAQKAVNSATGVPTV
# MT1-MMP act inh: MT1-MMP (human) activation inhibition | actives 0.061% (n = 360,000) | GFP/RFP ratio change, % at 20 µM | HT1080 RFP-PRO-GFP cells, GFP/RFP ratio fluorescence, overnight; percent of plate control window, DMSO zero | P50281;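 active = GFP/RFP ratio change of at least 30% with cell ATP level not reduced by more than half and red fluorescence within 50% of control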; note: strong numbers were not always called active
#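 Assay system: HT1080 RFP-PRO-GFP cells | Dosing: 20 µM single dose, 1% DMSO | Incubation: Cells overnight before dosing, compound overnight, 37 °C, 5% CO2 | Evaluation: GFP/RFP fluorescence ratio | Control set: DMSO-only wells and HT1080 RFP-L50D-GFP cell wells as references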
# MT1-MMP act inh RFP: recorded beside MT1-MMP act inh, whose call it bears; RFP signal change, %; measured here: RFP expression control read;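 0 = vehicle wells; hits needed this value within 50% of zero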
# An asterisk follows results filed as active; i = inactive; ? = inconclusive; . = not tested or not shown.
# Start of the data: the first four records as a preview:
SMILES,CSC inhib,Rce1 inh,eIF4H FP inh,Yeast UUG start,HIV Env fusion,PABP polyA inh,MT1-MMP act inh,MT1-MMP act inh RFP
Cc1ccc(C)c(N2CCN(C(=O)c3ccc(CS(=O)Cc4cccc(Cl)c4)o3)CC2)c1 (stereo unspecified),-27,i,-12,-15,23,1,1,0
Cc1cc2nc(-c3ccc(F)cc3)c(CC(C)(C)C)n2c(C)c1Br,.,.,.,-3,3,.,-5,-4
CC(Cc1cccs1)NC(=O)Nc1ccc(Cl)c(Cl)c1 (stereo unspecified),42,i,-4,-26,-102,0,-1,-4
COc1ccc([N+](=O)[O-])cc1N(CC(O)CN(C)C)S(=O)(=O)c1ccccc1 (stereo unspecified),4,i,-2,-6,-8,4,1,6

# The list itself, from the first entry:
SMILES,CSC inhib,Rce1 inh,eIF4H FP inh,Yeast UUG start,HIV Env fusion,PABP polyA inh,MT1-MMP act inh,MT1-MMP act inh RFP
Cc1ccc(C)c(N2CCN(C(=O)c3ccc(CS(=O)Cc4cccc(Cl)c4)o3)CC2)c1 (stereo unspecified),-27,i,-12,-15,23,1,1,0
Cc1cc2nc(-c3ccc(F)cc3)c(CC(C)(C)C)n2c(C)c1Br,.,.,.,-3,3,.,-5,-4
CC(Cc1cccs1)NC(=O)Nc1ccc(Cl)c(Cl)c1 (stereo unspecified),42,i,-4,-26,-102,0,-1,-4
COc1ccc([N+](=O)[O-])cc1N(CC(O)CN(C)C)S(=O)(=O)c1ccccc1 (stereo unspecified),4,i,-2,-6,-8,4,1,6
CCC(=O)Nc1nnc(/C=C/c2ccccc2)s1,-9,i,-6,-7,-30,0,1,0
Cc1ccccc1CNC(=O)CN1C(=O)c2ccccc2S1(=O)=O,-9,i,-5,.,25,0,0,2
Cc1ccc(S(=O)(=O)Nc2cc(NC(=O)CN3CCOCC3)ccc2Cl)cc1,-11,i,-6,-12,-61,20,0,0
Cn1cnc(S(=O)(=O)Nc2ccccc2C(=O)NCC2CC2)c1,-10,i,2,.,1,0,3,0
CCS(=O)(=O)N1CCC(C(=O)NCc2ccc(OC)cc2)CC1,9,i,7,-10,22,-2,2,3
Cc1cccc(NC(=O)CNCC(=O)Nc2cccc(C)c2C)c1C,-19,i,6,-2,-14,7,1,3
COc1ccc(CC(=O)Nc2sccc2C#N)cc1S(=O)(=O)N1CCOCC1,-16,i,.,2,-3,.,-2,4
CCOCCCNC(=O)C(NC(=O)Cc1cccs1)c1ccc(OC)cc1 (stereo unspecified),-12,.,5,.,11,-9,6,6
O=C(NNC(=O)c1cccc(S(=O)(=O)Nc2ccc(Cl)cc2)c1)c1ccc(=O)[nH]c1,-10,.,.,-6,-1,.,4,7
CN(C)c1nc2c(N)ncnc2n1[C@H]1O[C@@H](CO)[C@H](O)[C@@H]1O,0,i,-4,-6,4,9,2,4
CCCCn1c(N)c(N(CCC(C)C)C(=O)c2ccc(C)c(S(=O)(=O)N3CCOCC3)c2)c(=O)[nH]c1=O,-7,i,.,.,15,.,-2,4
COC(=O)c1ccc(-c2ccco2)n1Cc1nc(-c2ccc(OC)c(OC)c2)oc1C,10,i,-1,-8,.,11,-8,-8
O=[N+]([O-])c1cccnc1Sc1ccc(Br)cc1,6,i,.,.,1,.,0,-3
C=CCNC(=O)C(=O)N/N=C/c1ccco1,15,i,8,.,-5,-1,1,1
CC(=O)c1c(C)oc2ccc(N(C(=O)c3ccncc3)S(=O)(=O)c3ccccc3)cc12,-6,i,-7,-9,1,13,2,-3
Cc1nn(C(C)C(=O)NC2CCC(C)CC2)c(=O)c2nn(-c3ccccc3)c(C)c12 (stereo unspecified),-16,i,-8,-10,-17,12,0,-7
O=C1c2ccc3c4c(ccc(c24)C(=O)N1c1ccc(O)cc1)C(=O)N(c1ccc(O)cc1)C3=O,-11,i,-15,.,-2,-1,1,-1
O=C(CN1CCN(C(=O)c2ccco2)CC1)Nc1cccc([N+](=O)[O-])c1,-13,i,-6,.,5,-2,0,-2
CCn1cc(C(=O)NCCCOC(C)C)c(=O)c2cc(S(=O)(=O)N3CCCC3)ccc21,10,i,1,-6,4,11,8,3
O=C(Nc1cccc(C(F)(F)F)c1)OCCN1CCN(Cc2ccccc2)CCC1=O,-1,i,-5,-13,34,0,7,-5
CCC1(c2ccccc2)NC(=O)N(Cc2ccc(C(=O)OC)cc2)C1=O (stereo unspecified),.,i,4,.,2,-11,2,1
Cc1onc(-c2c(F)cccc2Cl)c1C(=O)NCc1ccc2c(c1)OCO2,-9,i,-8,-4,27,-2,-3,-2
CN(C)c1ccnc(Oc2ccc(Cl)cc2)c1C#N,6,i,-19,-3,.,7,3,0
CCOc1ccc(NC(=O)C2C3CC/C=C\CCC32)cc1 (stereo unspecified),3,i,-5,.,-13,2,0,-4
COc1ccccc1N1CCN(C(=O)COc2ccc(C)cc2Br)CC1,3,i,12,8,.,33,0,-3
COc1ccc(-c2csc3ncnc(N4CCN(S(=O)(=O)c5cccc(Br)c5)CC4)c23)cc1,5,i,.,-18,1,.,-13,-10
Cc1cc(C)cc(Oc2ccccc2/C=N\O)c1,10,i,0,-5,.,0,1,3
CC(=O)Nc1ccc(S(=O)(=O)N(C)c2ccc(OCC(=O)OCC(=O)Nc3ccc(OC(F)F)cc3)cc2)cc1,-8,i,-1,-12,-46,-2,-2,1
Cn1nnnc1SCc1nc2ccccc2[nH]1,-8,i,0,-31,.,-13,-3,5
C/C(=N\NC(=O)CNC(=O)C(c1ccccc1)c1ccccc1)c1ccccc1,-2,i,-7,-9,3,-11,-2,3
COC(=O)C1CC(c2ccc(Cl)cc2)=NO1 (stereo unspecified),-17,i,-7,.,-4,-3,3,8
CCCCCC(=O)NC(Cc1ccc(OC)c([N+](=O)[O-])c1)C(=O)O (stereo unspecified),1,i,4,.,-10,-2,5,6
O=C(CN1CCN(S(=O)(=O)c2ccc3c(c2)OCCCO3)CC1)N1CCc2ccccc21,.,.,.,-6,-27,.,9,-2
CCCCN(C)C(=O)c1ccc2c(c1)N(CC)C(=O)c1ccccc1S2=O (stereo unspecified),-11,i,-16,-2,2,-3,2,2
CN(C)S(=O)(=O)c1ccc(C(=O)OC2CCOC2=O)cc1 (stereo unspecified),12,i,-1,-14,11,3,1,1
Cc1ccc(S(=O)(=O)CCC(=O)OCC(=O)NCCc2ccc(S(N)(=O)=O)cc2)cc1,-2,.,.,-13,.,.,-1,0
CCN(CC(=O)NCCc1ccc(F)cc1)Cc1nc2ccccc2c(=O)[nH]1,-8,i,-2,-11,-5,-5,-3,2
COc1ccccc1NC(=O)c1ccccc1-c1nc(-c2ccccc2OC)no1,2,i,-6,.,.,-2,3,-1
NCCCC(=O)N1c2ccccc2Sc2ccccc21,-2,i,-9,-5,6,-14,6,7
O=C(CN1C(=O)NC2(CCCC2)C1=O)NCCN1C(=O)S/C(=C\c2ccccc2F)C1=O,15,i,.,.,-16,.,-3,-2
CC1(C)CC(=O)C(CC(=O)NC(=O)NCc2ccccc2)=C(O)C1,-5,i,5,-4,-100,0,2,2
O=C(NCc1cccs1)C1CCCN1C(=O)Nc1ccccc1Cl (stereo unspecified),-6,i,-4,-24,-5,-9,-3,-1
Cc1ccc(S(=O)(=O)N(CC(=O)N2CCOCC2)c2ccc(Br)cc2)cc1,0,i,-13,10,1,0,-3,-3
O=C(NN1CCOCC1)c1ccccc1Br,-13,i,-4,-15,-9,-3,1,2
COc1ccc(N2CCN(C(=O)CSc3nnnn3-c3ccc4c(c3)OCCO4)CC2)cc1,-6,i,3,.,.,-10,-7,-14
Cc1cc(OCc2cc(C(=O)N(C)C3CCOCC3)no2)cc(C)c1Cl,20,i,9,-3,-51,14,2,-6
# The list goes on.
SMILES,CSC inhib,Rce1 inh,eIF4H FP inh,Yeast UUG start,HIV Env fusion,PABP polyA inh,MT1-MMP act inh,MT1-MMP act inh RFP
O=C1C(=O)N(CCCn2ccnc2)C(c2ccc(Cl)cc2)/C1=C(\O)c1ccc2c(c1)OCCO2 (stereo unspecified),-3,i,.,-15,-5,.,1,1
COc1ccc(S(=O)(=O)/C(C#N)=C/Nc2ccc(NC(C)=O)cc2)cc1,-9,i,4,-10,15,16,0,-1
COc1nccc(Nc2ccccc2)c1C#N,-10,.,-4,10,.,2,-2,1
CCc1ccc(-c2cc(C(F)(F)F)n3nc(C(=O)Nc4cnn(Cc5ccc(C)cc5)c4)cc3n2)s1,48,i,-6,-13,.,2,-1,-4
Cc1ccccc1NC(=O)c1oc(=O)c2ccccc2c1-c1ccccc1,-9,i,-1,0,-19,2,-2,0
C/C(N)=C(/C#N)C(=O)CSc1nc2ccccc2c(=O)n1Cc1ccc(F)cc1,28,i,32,-17,67*,35,-3,-4
Cc1ccc(Nc2cc(C)nc3nc(C)nn23)c(C)c1,-22,i,7,-14,-2,2,2,3
COc1cccc(/C=N/n2c(COc3ccccc3)n[nH]c2=S)c1OC,-10,i,-5,-20,-17,-12,5,0
CCOC(=O)N1CCN(C(=O)CCn2nc(-c3ccc(Cl)cc3)ccc2=O)CC1,-16,i,0,9,.,-3,1,2
CCCCCCC/C=N/Nc1nnc(Cc2ccccc2)c(=O)[nH]1,1,i,-3,-22,4,-3,-2,1
COCCCNC(=O)/C=C/c1cccc(Cl)c1,-12,i,-4,-5,-28,-7,2,0
CC(=O)NCCNc1nc2cc(-c3cccc(C(F)(F)F)c3)sc2c(=O)n1C,.,.,.,-8,?,.,7,-9
COc1ccccc1NC(=O)N1CCCC1C(=O)NCc1cccs1 (stereo unspecified),4,.,-15,.,-2,-6,-1,1
CC(C)c1c(C(=O)N/N=C2\CCc3ccccc32)nnn1-c1nonc1N,13,i,-7,-11,-3,3,1,-2
CCOc1ccc(C2=Nn3c(CC)nnc3SC2)cc1,.,.,.,-16,-5,.,3,-5
NNc1ccc2c(C(F)(F)F)cc(C(F)(F)F)nc2n1,11,i,9,-17,4,23,9,12
O=C(COC(=O)c1ccccc1)NCc1cccs1,-4,i,-3,-7,-105,-2,0,3
CCCNC(=O)C1(C)CCCN(Cc2cccs2)C1 (stereo unspecified),.,.,.,2,-20,.,-2,4
CSCCC(NC(=O)c1ccccc1)C(=O)OCC(=O)c1ccc[nH]1 (stereo unspecified),-4,i,34,.,-6,0,0,8
COc1ccc(OC)c(NC(=O)c2cc(-c3cc(C)c(C)cc3O)n[nH]2)c1,-5,i,-4,-14,1,-6,7,3
Cc1cccc(N2C(=O)CC(N3CCN(c4ccccn4)CC3)C2=O)c1 (stereo unspecified),-11,.,2,.,-2,-2,0,4
CCOc1ccc(NC(=O)CSc2nnc(C3CC3)n2C)cc1,-9,i,-9,.,-17,-6,3,4
O=C(O)/C=C/C(=O)NCc1csc2ccccc12,-11,i,-2,.,-4,5,-3,-2
Cc1sc(NC(=O)c2cc3ccccc3oc2=O)c(C(=O)OC(C)C)c1-c1ccccc1,5,i,-3,-7,.,2,-9,-1
CN1CCN(C2=C(NS(=O)(=O)c3cccs3)C(=O)c3ccccc3C2=O)CC1,8,i,-7,11,-2,18,6,8
Cc1[nH]c(-c2ccco2)nc1C(=O)O,-6,i,11,-31,.,5,-3,8
COc1ccc2[nH]c(C(=O)N(C)Cc3ccccc3)c(C)c2c1,-14,i,0,-4,-18,4,4,-1
O=C(COC(=O)c1ccc(OC(F)(F)F)cc1)Nc1ncccn1,-11,.,.,1,4,.,-5,-2
COc1ccc(N(CC(=O)Nc2ccc3c(c2)OCCO3)S(=O)(=O)c2cccnc2)cc1,-15,.,-12,-5,.,-14,5,4
COc1ccc(-c2nc3ccccc3o2)cc1OC,3,.,0,-15,-37,-2,0,3
